Assay outcomes (PubChem BioAssay)
KCNQ2 inh: KCNQ2 potassium channel inhibitors, primary screen, cell-based, CHO-K1, FluxOR thallium flux, B-score (AID 2156) | 20 min; stronger effect = lower value; only compounds with negative scores are shown here; some inactives read as strong as hits | B-score at 10 µM | actives 1.1% (n = 310,000);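 active means fluorescence ratio B-score at most minus 3 library SDs, with starting brightness B-score within 2 library SDs, cut at about -5.5 in these data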
Target sequence (O88943 whole entry, looked up): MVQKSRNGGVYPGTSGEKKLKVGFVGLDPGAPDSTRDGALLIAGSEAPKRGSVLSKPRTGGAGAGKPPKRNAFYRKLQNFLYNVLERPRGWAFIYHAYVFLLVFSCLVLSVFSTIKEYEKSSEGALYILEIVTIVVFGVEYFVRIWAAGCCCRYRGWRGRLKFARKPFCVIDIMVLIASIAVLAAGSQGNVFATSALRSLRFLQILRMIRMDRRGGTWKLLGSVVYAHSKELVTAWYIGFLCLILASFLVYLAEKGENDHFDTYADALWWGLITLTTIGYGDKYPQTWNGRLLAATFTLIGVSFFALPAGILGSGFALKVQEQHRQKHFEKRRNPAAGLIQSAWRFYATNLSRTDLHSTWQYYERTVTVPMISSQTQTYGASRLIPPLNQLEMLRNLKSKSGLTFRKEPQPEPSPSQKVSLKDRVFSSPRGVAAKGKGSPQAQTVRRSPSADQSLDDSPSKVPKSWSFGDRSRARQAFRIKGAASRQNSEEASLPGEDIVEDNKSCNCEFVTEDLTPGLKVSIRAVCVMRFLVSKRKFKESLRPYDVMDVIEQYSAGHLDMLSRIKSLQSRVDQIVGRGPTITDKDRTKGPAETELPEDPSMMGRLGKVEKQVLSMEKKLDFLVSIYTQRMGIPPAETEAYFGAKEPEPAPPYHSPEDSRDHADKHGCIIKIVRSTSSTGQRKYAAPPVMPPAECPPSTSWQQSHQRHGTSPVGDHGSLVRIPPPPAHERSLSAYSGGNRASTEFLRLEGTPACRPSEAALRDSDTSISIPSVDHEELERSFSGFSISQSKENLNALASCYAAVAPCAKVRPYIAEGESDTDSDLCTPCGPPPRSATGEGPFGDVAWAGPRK
KCNQ2 inh baseline: second read-out of KCNQ2 inh, no call of its own (marks repeat the call); B-score; measured here: initial fluorescence intensity artifact check;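 brightness before thallium and not channel activity; 0 = typical well and far values either way flag optical interference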
* = called active by the depositor; i = inactive.

SMILES	KCNQ2 inh	KCNQ2 inh baseline
COC(=O)c1cc(NC(=O)CC2SC(=Nc3ccccc3)N(CCc3c[nH]c4ccccc34)C2=O)cc(C(=O)OC)c1 (stereo not given)	i	-0.29
Cc1nc2sc(C(c3ccco3)N3CCN(c4cccc(Cl)c4)CC3)c(O)n2n1 (stereo not given)	i	0.12
COc1ccc(C(=O)Nc2c(N)nc(SCC(=O)N3CCCCCC3)[nH]c2=O)cc1OC	i	2.2
O=C(/C=C/c1ccco1)NC(=S)Nc1cccc([N+](=O)[O-])c1	i	-0.02
CC(=O)Cn1c(CN2CCCCC2)nc2ccccc2c1=O	i	1.7
CCc1nnc(NS(=O)(=O)c2ccc(NCc3cc(Br)ccc3O)cc2)s1	i	-0.18
O=C(NCC1(N2CCCCC2)CCCCC1)c1ccc(NS(=O)(=O)c2ccccc2)cc1	i	-0.05
Cc1cc2oc(C(=O)N3CCN(Cc4ccccc4)CC3)c(C)c2cc1C	i	0.38
CCCCNC(=O)CSc1nc2ccccc2n1S(=O)(=O)c1ccc(Cl)cc1	i	-0.73
O=C(Cc1cccc(C(F)(F)F)c1)NCc1ccc(Cl)cc1	i	0.68
O=C(N1CCCCC1)N1CCN(C(=O)N(c2ccccc2)c2ccccc2)CC1	i	1.9
COC1=C(N2CCOCC2)C(=O)c2ccccc2C1=O	i	1
O=C(CCc1ccccc1)NC(=S)Nc1ccc2c(c1)C(=O)OC2	i	-2.6
CSc1ccc(S(=O)(=O)N2CCC(C(=O)NCc3ccccn3)CC2)cc1	i	0.11
O=C(c1ccco1)N1CCN(Cc2ccc(Cl)cc2)CC1	i	-1.8
CN(C)C(=O)C(OC(=O)c1ccc2ccccc2n1)c1ccccc1 (stereo not given)	i	-0.03
CCCc1c(C(=O)N/N=C/c2cccs2)nnn1-c1nonc1N	i	-0.12
Cc1cc(NC(=O)CSc2nnc(COc3ccccc3)o2)no1	i	-1.4
O=S(=O)(Oc1ccc(Cl)cc1)c1cccc2cccnc12	i	2.8
CCO[C@H]1OC(C(=O)NCc2ccccc2)=C[C@@H](c2ccc(C(F)(F)F)cc2)[C@@H]1CCCO	i	0.12
CSCCC(NC(=O)c1ccc([N+](=O)[O-])cc1Cl)C(=O)OCC(=O)C12CC3CC(CC(C3)C1)C2 (stereo not given)	i	-0.02
COc1ccc(OC)c(CCNC(=O)Cn2cccc2C(=O)c2ccccc2C)c1	i	0.56
COCC1CCN(C(=O)C2CCC(=O)N(Cc3cccc(C(F)(F)F)c3)C2)CC1 (stereo not given)	i	-1.3
CNC(=O)CCn1nc(-c2ccc(Cl)cc2)c2ccccc2c1=O	i	1.1

Some of the entries above, reformatted.
Below each compound – KCNQ2 inh, KCNQ2 inh baseline
CCO[C@H]1OC(C(=O)NCc2ccccc2)=C[C@@H](c2ccc(C(F)(F)F)cc2)[C@@H]1CCCO
 : i, 0.12
CSCCC(NC(=O)c1ccc([N+](=O)[O-])cc1Cl)C(=O)OCC(=O)C12CC3CC(CC(C3)C1)C2 (stereo not given)
 : i, -0.02
COc1ccc(OC)c(CCNC(=O)Cn2cccc2C(=O)c2ccccc2C)c1
 : i, 0.56
COCC1CCN(C(=O)C2CCC(=O)N(Cc3cccc(C(F)(F)F)c3)C2)CC1 (stereo not given)
 : i, -1.3
CNC(=O)CCn1nc(-c2ccc(Cl)cc2)c2ccccc2c1=O
 : i, 1.1

New compounds follow.
SMILES	KCNQ2 inh	KCNQ2 inh baseline
Cc1ccc(-c2nc(CSCC(=O)N3CCCC3)c(C)o2)cc1	i	1.7
Clc1ccc(-c2nnc(-c3ccc(Br)o3)o2)c(Cl)c1	i	0.73
COc1ccc(-n2c(SCC(=O)N3CCOCC3)nc3ccccc3c2=O)cc1	i	1.8
Cc1cc(NC(=O)CSc2nnc(C)c(=O)n2N)no1	i	-0.61
Clc1ccc(CO/N=C2\CCCc3nonc32)c(Cl)c1	i	0.83
COc1ccccc1CN1CC(C(=O)NCc2c(F)ccc(C)c2F)CCC1=O (stereo not given)	i	-0.83
Cc1sc(NC(=O)c2ccco2)c(CN2CCCCC2)c1C	i	1.3
Cc1ccc(-c2cc(N)n(Cc3ccc(Cl)cc3)n2)cc1	i	-1
O=C(O)c1ccc(-n2ncc3c2/C(=C/c2cccc([N+](=O)[O-])c2)CC3)cc1	i	-0.12
Cc1c(NC(=O)N(C)c2ccccc2)c(=O)n(-c2ccccc2)n1C	i	0.53
Cc1nc2cc(NC(=O)N3CC4(C)CC3CC(C)(C)C4)ccc2n1C (stereo not given)	i	2.3
COc1ccccc1N1CCN(/N=C/c2ccccc2C(=O)O)CC1	i	2

5 of the entries above in order of their number in KCNQ2 inh baseline, descending:
SMILES	KCNQ2 inh	KCNQ2 inh baseline
Cc1nc2cc(NC(=O)N3CC4(C)CC3CC(C)(C)C4)ccc2n1C (stereo not given)	i	2.3
COc1ccccc1N1CCN(/N=C/c2ccccc2C(=O)O)CC1	i	2
O=C(O)c1ccc(-n2ncc3c2/C(=C/c2cccc([N+](=O)[O-])c2)CC3)cc1	i	-0.12
COc1ccccc1CN1CC(C(=O)NCc2c(F)ccc(C)c2F)CCC1=O (stereo not given)	i	-0.83
Cc1ccc(-c2cc(N)n(Cc3ccc(Cl)cc3)n2)cc1	i	-1

The list continues:
SMILES	KCNQ2 inh	KCNQ2 inh baseline
COc1ccc(C(=O)/C=C/C(=O)N(CC(=O)NCCC(C)C)Cc2cccs2)c(O)c1	i	0.07
CCN(C(=O)COC(=O)c1ccco1)c1c(N)n(Cc2ccccc2)c(=O)[nH]c1=O	i	-0.05
COc1ccc(CNC(=O)N2CCN(S(=O)(=O)c3ccccc3F)CC2)cc1	i	-3.1
NC(=O)CN1C(=O)C(=O)N(Cc2ccc(F)cc2)C1=O	i	-0.15
c1ccc(Oc2nc(-c3ccccn3)nc3ccccc23)cc1	i	-1.7
COc1cc(CC(=O)NC(c2ccccc2)c2ccccc2)cc(OC)c1OC	i	-0.18
CCOc1cc(NC(=O)c2ccco2)c(OCC)cc1NC(=O)COc1ccccc1	i	0.52
Cc1ccc(S(=O)(=O)N2CCCC2C(=O)Oc2ccccc2)cc1 (stereo not given)	i	0.02
Cc1ccc(Cn2c(=O)c3ccccc3n3nc(C)cc23)cc1	i	0.41
COc1ccc(C(=O)NCc2ccc(Cl)c(Cl)c2)cc1OC	i	0.79
COc1ccccc1NC(=O)c1ccc[n+]([O-])c1	i	-1.8
COc1ccc(CCNC(=O)C2CC(=O)N(CCc3ccc(C)cc3)C2)cc1OC (stereo not given)	i	0.69

5 entries from above, sorted by SMILES length, low to high.
SMILES	KCNQ2 inh	KCNQ2 inh baseline
NC(=O)CN1C(=O)C(=O)N(Cc2ccc(F)cc2)C1=O	i	-0.15
Cc1ccc(S(=O)(=O)N2CCCC2C(=O)Oc2ccccc2)cc1 (stereo not given)	i	0.02
COc1cc(CC(=O)NC(c2ccccc2)c2ccccc2)cc(OC)c1OC	i	-0.18
COc1ccc(CCNC(=O)C2CC(=O)N(CCc3ccc(C)cc3)C2)cc1OC (stereo not given)	i	0.69
COc1ccc(C(=O)/C=C/C(=O)N(CC(=O)NCCC(C)C)Cc2cccs2)c(O)c1	i	0.07

Next structures:
SMILES	KCNQ2 inh	KCNQ2 inh baseline
O=C(NCc1ccccn1)C1CCCN(S(=O)(=O)c2ccc(Br)cc2)C1 (stereo not given)	i	0.32
O=C(O)CCC(=O)c1cccc2ccccc12	i	0.01
Cc1cccc(NC(=O)CSCC(=O)Nc2cccc3ncccc23)c1	i	1.8
Cc1ccc(N(CC(=O)NC2CCC(C)CC2)S(=O)(=O)c2cccnc2)cc1 (stereo not given)	i	-1.1
Cc1ccc(S(=O)(=O)N2CC3CCCN3c3ccc(C(F)(F)F)cc32)cc1 (stereo not given)	i	0.42
CCOC(=O)c1c(C)[nH]c(N=Nc2cccc(C)c2)c1C	i	1.7
COc1ccc(NC(=S)N(Cc2ccc(Cl)cc2)Cc2ccc(C(=O)O)cc2)cc1Cl	i	0.36
Cc1ccc(O)c(C(=O)c2cnc3c(c2)COc2ccccc2-3)c1	i	-0.26
O=C(CNC(=O)N1CC(=O)Nc2ccccc21)NCc1ccccc1	i	-0.8
N#Cc1ccc(NC(=O)c2sc3cc(C(F)(F)F)cnc3c2-c2cccs2)cc1	i	0.85
Cc1c(C)n2c(SCC(=O)Nc3ccc4c(c3)OCCO4)nnc2[nH]c1=O	i	1.9
COc1ccccc1NC(=O)CSc1nnnn1-c1ccccc1F	i	-0.12
Cc1cc(Nc2cc(C(=O)O)ccc2C)n2ncnc2n1	i	0.19
O=C(/C=C/c1ccc(S(=O)(=O)N2CCOCC2)cc1)NCCCn1ccnc1	i	0.03
CCC(C)NC(=O)C1CCCN(C(=O)NC2CCCCC2)C1 (stereo not given)	i	3.7
c1ccc(-c2nnc(SCC3CCCCO3)nc2-c2ccccc2)cc1 (stereo not given)	i	0.06
COc1ccc(/C=N\NC(=O)c2ccccc2F)cc1COc1ccc(F)cc1	i	-2
CCn1nc(NC(=O)c2ccco2)c2cc3ccc(C)cc3nc21	i	-0.61
COc1ccc(-n2c(=S)[nH]c3cc(C(=O)N(C)Cc4ccccc4)ccc3c2=O)cc1	i	-2
O=C(CSc1c2c(nc3cc(Cl)ccc13)CCCC2)NCc1ccco1	i	-1.2

Entries above that contain a thiophene ring, fused or not, in the order listed:
SMILES	KCNQ2 inh	KCNQ2 inh baseline
CCCc1c(C(=O)N/N=C/c2cccs2)nnn1-c1nonc1N	i	-0.12
Cc1sc(NC(=O)c2ccco2)c(CN2CCCCC2)c1C	i	1.3
COc1ccc(C(=O)/C=C/C(=O)N(CC(=O)NCCC(C)C)Cc2cccs2)c(O)c1	i	0.07
N#Cc1ccc(NC(=O)c2sc3cc(C(F)(F)F)cnc3c2-c2cccs2)cc1	i	0.85

An excerpt; the hit share may differ from the screen's.
